NS1 inh: blocks influenza NS1 protein function; S. cerevisiae slowed by influenza A NS1, growth recovery by OD600; Potency, µM (top dose mostly 46.1 µM), without a hit: at the highest dose activity, positive = more growth; 270,000 tested, 0.4% active; active means well fitted rising curve with a large enough effect; inconclusive means small, poorly fitted or top-dose-only effect; inactive means no such curve, though single readings can be large or run the other way; further: nearly all actives have a fitted effect of over 50% in size
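OD600 was taken as the measure of yeast growth restored by compound in an NS1-expressing S. cerevisiae strain. Cells had been washed out of glucose medium and diluted 1:100 into galactose -URA medium, pH 6.0.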
Cruzain inh noDet: cruzain (T. cruzi) inhibition without detergent; purified cruzain, Z-FR-AMC fluorescence, no detergent; Potency, µM, for inactives: max response, negative = inhibition, actives largely listed as inhibitors; 200,000 tested, 2.3% active;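 further: plate controls were enzyme without inhibitor for no effect and buffer without enzyme for full effect; nearly all actives have a fitted effect of over 40% in size; top concentration of the series not given in the record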
Target sequence (P25779 123-467 limits assumed): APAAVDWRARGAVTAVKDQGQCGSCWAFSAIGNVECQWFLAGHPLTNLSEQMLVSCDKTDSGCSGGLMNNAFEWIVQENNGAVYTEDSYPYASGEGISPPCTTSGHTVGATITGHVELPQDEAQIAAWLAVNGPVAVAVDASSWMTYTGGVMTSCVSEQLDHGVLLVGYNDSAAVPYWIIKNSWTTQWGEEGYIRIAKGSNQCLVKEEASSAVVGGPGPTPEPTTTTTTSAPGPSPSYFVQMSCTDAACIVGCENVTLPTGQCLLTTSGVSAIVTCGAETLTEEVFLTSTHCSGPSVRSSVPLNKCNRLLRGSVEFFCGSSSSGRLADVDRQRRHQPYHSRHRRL
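Detergent-free condition (0.00005% Triton X-100) in acetate buffer pH 5.5 with DTT. 1.5 nM enzyme and compound were pre-mixed 15 min, then 2 uM Z-FR-AMC substrate added; reaction progress from fluorescence change between first and third reads (60 s).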
Cruzain inh Det: blocks cruzain activity in presence of Triton detergent | P25779 | purified cruzain, Z-FR-AMC fluorescence, 0.01% Triton | Potency, µM, inactives show max response, negative = inhibition, most hits filed as inhibitors | 200,000 tested, 0.43% active;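 further: plate controls were neutral wells for no effect and buffer without enzyme for full effect; nearly all actives have a fitted effect of over 40% in size; top concentration of the series not given in the record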
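Read-out: AMC fluorescence (360 nm excitation, 450 nm emission), four reads over 2 min, first-to-third difference used. Conditions: cruzain 1.5 nM, Z-FR-AMC 2 uM, pH 5.5 acetate, 5 mM DTT, 0.01% Triton X-100.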
* marks the source's active call; other numbers are inactive results; ? = inconclusive. Unless noted, the call rests on the fitted dose curve; in most records, active means well fitted curve in the direction sought with a large enough effect; inconclusive means small, poorly fitted or top-dose-only effect, or another doubt; inactive means no such curve, though single readings can be large; an effect the other way counts as inactive or inconclusive. Potency means the concentration at half of the fitted maximal effect. An excerpt; the hit share may differ from the screen's.

Values run as follows: NS1 inh	Cruzain inh noDet	Cruzain inh Det
> O=C(O)c1ccc(Nc2ccnc3cc(Cl)ccc23)cc1O
 : -3%	-5%	-2.6%
> Cc1ccc(C2=Nc3ccccc3S[C@@H](c3cccc([N+](=O)[O-])c3)C2)cc1
 : -3%	-17%	-2.2%
> CC(C)[C@H](Nc1ncnc2nc[nH]c12)C(=O)O
 : 0%	-1%	2.0%
> O=C(O)CSc1n[nH]c(=O)[nH]c1=O
 : -2%	1%	5.7%
> Cc1cc(O)c(C(C)C)cc1CN1CCCCC1
 : 0%	-5%	1.6%
> CC1(C)[C@@H](CC(=O)O)CCC[C@@H]1CC(=O)O
 : -2%	2%	5.0%
> O=C(O)CCC(=O)c1ccc(Cl)cc1
 : 3%	-3%	3.6%
> NC(=O)CS(=O)C[C@H](N)C(=O)O (stereo partly drawn)
 : 0%	-5%	9.8%
> O=C(O)[C@@H](S)[C@H](S)C(=O)O
 : 0%	1%	1.5%
> CC(C)CNc1nc2ncnc(N)c2[nH]1
 : -4%	2%	3.8%
> NNC(=O)[C@@H](O)[C@H](O)C(=O)NN
 : 0%	1%	2.5%
> Oc1ccc(Cl)cc1Cc1cc(Cl)cc(Cc2cc(Cl)ccc2O)c1O
 : -32%	-10%	-2.2%
> S=C(S)NCCN1CCNCC1
 : 3%	-2%	2.2%
> O=C(O)c1ccc(SSc2ccc(C(=O)O)cn2)nc1
 : -6%	3%	-3.1%
> Cc1cc2ncn(CC(=O)O)c2cc1C
 : -3%	1%	-1.5%
> CCNCCC1(CC)C(=O)NC(=O)NC1=O
 : -3%	-1%	9.2%
> CC(C)NC[C@@H](O)c1ccc(O)c2ncccc12
 : -2%	1%	1.8%
> Cc1cc(=O)oc2cc(O)c(CN(C)CC(=O)O)cc12
 : 0%	2%	-6.6%
> O=[N+]([O-])c1cccc(/C=N\Nc2ccc3ccccc3n2)c1O
 : -32%	1%	1.8%
> Nc1nc2c(c(=O)[nH]1)CN(c1ccc(S(N)(=O)=O)cc1)CN2
 : 1%	-4%	-6.9%

The listing continues.
Values run as follows: NS1 inh	Cruzain inh noDet	Cruzain inh Det
> CC(C)(CCc1nc2ccccc2[nH]1)C(=O)O
 : 3%	1%	1.0%
> O=S(=O)(O)c1ccc2cc(N=Nc3cc(S(=O)(=O)O)c4cccnc4c3O)ccc2c1
 : -1%	-4%	-3.2%
> Nc1nc(Cc2ccccc2)nc(Cc2ccccc2)c1-c1ccccc1
 : -9%	1%	1.1%
> CS(=O)(=O)Nc1ccc(Nc2c3ccccc3nc3ccccc23)cc1
 : -8%	-7%	-0.2%
> O=S1(=O)N[C@H]2CC[C@@H]3NS(=O)(=O)N[C@H]4CC[C@H](N1)N4S(=O)(=O)N23
 : 4%	1%	-0.7%
> c1ccc2c(c1)C(=Nc1ccc(N=C3c4ccccc4-c4ccccc43)cc1)c1ccccc1-2
 : 5%	0%	0.4%
> CC[C@@H]1CC(=O)N(SC[C@H](N)C(=O)O)C1=O
 : -1%	-6%	4.1%
> OCCSCc1ccccc1
 : -1%	4%	-0.5%
> O=C(NCc1cccs1)O[C@H]1C[C@H]2CC[C@@H]1C2
 : -1%	-1%	-1.2%
> N#CC[N+]1(Cc2ccccn2)CCCC1
 : -5%	6%	3.3%
> O=C1c2ccccc2C(=O)c2c(Nc3ccc4c5c(cccc35)C(=O)c3ccccc3-4)cccc21
 : 1%	-2%	1.3%
> O=C1N[C@@]2(CN3CCC2CC3)C(=O)N1CN(Cc1ccccc1)c1ccccc1
 : -5%	-5%	-0.5%
> Cc1cc(C)c2nc3c(c([C@H](O)C4CCCCN4)c2c1)CC/C3=C/c1ccc(Cl)cc1 (stereo partly drawn)
 : -15%	-1%	6.3%
> c1ccc2c[n+](Cc3ccnc4ccccc34)ccc2c1
 : 0%	3%	5.4%
> CC(C)(N=NC(C)(C)C1=NCCN1)C1=NCCN1
 : 3%	-2%	2.3%
> O=C(O)C[C@H](NC(=O)CP(=O)(O)O)C(=O)O.[NH-][C@@H]1CCCC[C@@H]1[NH-].[Pt]
 : -8%	6%	6.5%
> Clc1cc2c(c(CSC3=NCN(CC4CC4)CN3)c1)OCOC2
 : -3%	-14%	-1.2%
> Cc1cccc(Cl)c1NC[C@H](O)CN1CCN(C)CC1
 : -8%	-5%	-0.6%
> C[C@H](CCC(=O)NN)[C@@H]1CC[C@@H]2[C@H]3CC[C@H]4C[C@@H](O)CC[C@@]4(C)[C@@H]3CC[C@]21C
 : ?	?	3.0%
> c1ccc2c(CC3NCCN3)cccc2c1
 : -9%	10%	2.1%

Pulled one by one from the entries so far (6):
Values run as follows: NS1 inh	Cruzain inh noDet	Cruzain inh Det
> OCCSCc1ccccc1
 : -1%	4%	-0.5%
> N#CC[N+]1(Cc2ccccn2)CCCC1
 : -5%	6%	3.3%
> c1ccc2c[n+](Cc3ccnc4ccccc34)ccc2c1
 : 0%	3%	5.4%
> O=C(O)C[C@H](NC(=O)CP(=O)(O)O)C(=O)O.[NH-][C@@H]1CCCC[C@@H]1[NH-].[Pt]
 : -8%	6%	6.5%
> Cc1cc(C)c2nc3c(c([C@H](O)C4CCCCN4)c2c1)CC/C3=C/c1ccc(Cl)cc1 (stereo partly drawn)
 : -15%	-1%	6.3%
> C[C@H](CCC(=O)NN)[C@@H]1CC[C@@H]2[C@H]3CC[C@H]4C[C@@H](O)CC[C@@]4(C)[C@@H]3CC[C@]21C
 : ?	?	3.0%

The list continues.
Values run as follows: NS1 inh	Cruzain inh noDet	Cruzain inh Det
> Clc1ccc(Cl)c(SCCCN2CCNCC2)c1
 : -3%	8%	3.6%
> Clc1ccc(CSCc2ccc(Cl)cc2Cl)c(Cl)c1
 : -7%	-4%	0.8%
> COc1cc2c(cc1O)[C@@H](c1cc(O)c(O)c(OC)c1)[C@@](O)(C(=O)O)[C@@H](CO)[C@@H]2O
 : 0%	-3%	3.5%
> O=C(O)C[C@H](Cc1ccccc1Cl)C(=O)O
 : -6%	9%	6.6%
> O=S(=O)(O)c1ccc(-c2nnc(-c3ccccn3)nc2-c2ccc(S(=O)(=O)O)o2)o1
 : -5%	4%	-0.7%
> CCC(=O)[C@@H](c1ccccc1)c1ccccn1
 : 0%	-8%	7.2%
> NCCCc1ccc2oc3ccccc3c2c1
 : 0%	-8%	-0.4%
> C[C@@](N)(Cc1c[nH]c2ccccc12)C(=O)O
 : -7%	3%	8.6%
> O=C(O)CCCSc1ccccc1
 : 2%	1%	3.2%
> NC(=O)NCCS[C@H]1CCCC[C@@H]1O
 : 1%	-1%	2.7%
> N[C@@H](Cc1ccnnc1)C(=O)O
 : 6%	9%	1.1%
> O=C1c2ccccc2-c2ccc(N(Cc3ccc(Br)cc3)Cc3ccc(Br)cc3)cc21
 : -13%	1%	2.7%
> O=[N+]([O-])c1ccc2c(N=Nc3ccc4ccccc4c3O)c(O)cc(S(=O)(=O)O)c2c1
 : -4%	11%	-27%
> Cc1[nH]c2ccccc2c1-c1cc(-c2cc(-c3c(C)[nH]c4ccccc34)on2)no1
 : -8%	-2%	1.7%
> CCN(CC)C[C@@H](O)c1ccc2ccc3ccccc3c2c1
 : -7%	2%	4.8%
> CC(=O)O[C@H]1CC[C@]2(C)C(=CC[C@H]3[C@H]4C[C@H]5O[C@]6(CC[C@H](C)CN6)[C@H](C)[C@@H]5[C@]4(C)CC[C@@H]32)C1
 : -8%	-2%	3.7%
> N/N=C1/CC(=O)NC(=O)N1
 : 1%	-6%	-0.4%
> CC(C)(C)c1cc(Br)c(O)c(CN(Cc2cc(C(C)(C)C)cc(Br)c2O)C2CCCCC2)c1
 : -13%	-2%	2.3%
> COc1ccc2c(c1)CCc1c(-c3noc4c3CCc3cc(OC)ccc3-4)noc1-2
 : 0%	6%	0.4%
> O=C(O)/C=C\C(=O)Nc1ccc2c(c1)-c1ccccc1C2
 : 0%	-7%	0.5%

Later entries.
Values run as follows: NS1 inh	Cruzain inh noDet	Cruzain inh Det
> O=C(O)[C@@H]1[C@H](C(=O)O)[C@H]2C(=O)C=C[C@H]1N2Cc1ccccc1
 : -1%	6%	3.3%
> CC(C)c1ccc(C(O)(C(=O)O)c2ccc(C(C)C)cc2)cc1
 : -3%	13%	-6.2%
> Nc1nccc(Nc2ccc(S(N)(=O)=O)cc2)n1
 : -3%	1%	-3.4%
> CN(C)CN1C(=O)S/C(=C2/C(=O)N(CN(C)C)c3ccccc32)C1=O
 : 0%	0%	1.3%
> O=C(O)C1C(C(=O)O)C(C(=O)O)C1C(=O)O (stereo not drawn)
 : -11%	6%	2.4%
> OC1CC2CC[C@H](C1)N2CCCN1c2ccccc2Sc2ccc(Cl)cc21 (stereo partly drawn)
 : -8%	-3%	-3.9%
> Cc1cc(-c2cc(C)c(O)c(C(C)(C)C)c2)cc(C(C)(C)C)c1O
 : -31%	-1%	-1.4%
> O=C1C(Cl)=C(Nc2ccc(S(=O)(=O)Nc3ccccn3)cc2)C(=O)c2ccccc21
 : -26%	-1%	-4.6%
> O=Nc1c(O)[nH]c2ccccc12.[Cu].[O-]/N=C1/C(=[OH+])Nc2ccccc21
 : -6%	6%	-0.3%
> O=C(Nc1nn[nH]n1)c1nc(-c2ccccc2)cc(=O)[nH]1
 : 0%	-6%	-1.0%
> Nc1nc2c(C(=O)NCc3cccs3)nnn2c2cccc(Cl)c12
 : 3%	4%	2.3%
> C[C@]12CC[C@H]3c4ccc(O)cc4CC[C@@H]3[C@H]1C/C(=N/O)[C@H]2O
 : -2%	-3%	-3.1%
> S=C1NCN2CCN(CC2)CNC(=S)C(=S)NCN2CCN(CC2)CNC1=S
 : -8%	4%	-6.0%
> c1ccc(/C(=N/Nc2nc3ccccc3s2)c2ccccn2)cc1
 : -44%	-1%	5.1%
> c1ccc2c(c1)-c1ccccc1C2N1CC2CCC(CC2)C1
 : 0%	1%	1.8%
> O=C1c2ccccc2C(=O)N1c1ccc(Cc2ccc(N3C(=O)c4ccccc4C3=O)cc2)cc1
 : -3%	4%	-0.1%
> C[C@@]1(CO)[C@H](O)CC[C@]2(C)[C@@H]1CC[C@H]1C[C@H]3C[C@]12CC[C@]3(O)COC(=O)CN
 : -6%	-12%	-4.1%
> CN(C)Cc1cc(Cl)c(O)c(CN(C)C)c1
 : -1%	-1%	3.8%
> O=C(O)c1ccc2c(c1C(=O)O)C(=O)OC2(c1ccc(O)cc1)c1ccc(O)cc1
 : 3%	-3%	-0.2%
> Nc1nc(-c2ccc3ccccc3c2)cc(-c2cc(-c3ccc4ccccc4c3)nc(N)n2)n1
 : 0%	-4%	-1.9%

Reprinted from the part before: 3 entries, then new ones.
Values run as follows: NS1 inh	Cruzain inh noDet	Cruzain inh Det
> CN(C)Cc1cc(Cl)c(O)c(CN(C)C)c1
 : -1%	-1%	3.8%
> O=C(O)c1ccc2c(c1C(=O)O)C(=O)OC2(c1ccc(O)cc1)c1ccc(O)cc1
 : 3%	-3%	-0.2%
> Nc1nc(-c2ccc3ccccc3c2)cc(-c2cc(-c3ccc4ccccc4c3)nc(N)n2)n1
 : 0%	-4%	-1.9%
> C(=N/Nc1ccccn1)/c1cccnc1
 : -9%	3%	-2.2%
> O=C(O)[C@@H]1[C@@H](C(=O)NCc2cccnc2)[C@@H]2C=C[C@@H]1O2
 : 1%	10%	-0.5%
> CN1CCC[C@H](C(=O)OCC(=O)[C@]2(O)CC[C@@H]3[C@H]4CCC5=CC(=O)CC[C@@]5(C)[C@H]4[C@@H](O)C[C@]32C)C1
 : -6%	-10%	-0.3%
> S[C@@H]1CCCN(Cc2ccccc2)C1
 : 3%	-3%	-3.5%

Single records (already shown). Order of screens: NS1 inh	Cruzain inh noDet	Cruzain inh Det
S[C@@H]1CCCN(Cc2ccccc2)C1 reads 3%	-3%	-3.5%
O=C(O)[C@@H]1[C@@H](C(=O)NCc2cccnc2)[C@@H]2C=C[C@@H]1O2 reads 1%	10%	-0.5%
CN1CCC[C@H](C(=O)OCC(=O)[C@]2(O)CC[C@@H]3[C@H]4CCC5=CC(=O)CC[C@@]5(C)[C@H]4[C@@H](O)C[C@]32C)C1 reads -6%	-10%	-0.3%
C(=N/Nc1ccccn1)/c1cccnc1 reads -9%	3%	-2.2%

Screens deposited in PubChem by National Center for Advancing Translational Sciences (NCATS).
